Source: PubChem BioAssay (National Center for Advancing Translational Sciences (NCATS))
Six1-Eya2 inh – Six1/Eya2 interaction inhibition | Q15475+O00167 | AlphaScreen GST-Six1/His-Eya2 binding, biochemical; hits give low values; control for the full effect not named in the record | activity change, % (no concentration beside the values) | actives 0.56% (n = 360,000) | AID 651725; in the data active = activity change below about -65%; inconclusive = about -30% to -65%; inactive = above about -30%; further: on the % scale 0 is the no-effect control and ±100 the full control effect; compound concentration not given in the record
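Homogeneous AlphaScreen proximity assay pairing GST-Six1 with His-tagged Eya2 (added as 5X mix: 250 nM and 500 nM) in 50 mM Tris pH 8.0, 300 mM NaCl, 1 mM TCEP. Glutathione donor and nickel acceptor beads; 1 h, 37 °C, dark.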
D2 potentiator – human D2 receptor positive allosteric modulation; potentiation, % (test concentration not listed); DiscoveRx D2 beta-arrestin cells, luminescence, 90 min; 100% = 57 uM dopamine signal; actives 0.23% (n = 360,000); AID 624464; P14416; active = potentiation of 50% or more; inconclusive = 30% to 50%; inactive = 30% or less;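 further: compound concentration not given in the record; tested on top of an EC20 dose of dopamine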
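PathHunter beta-arrestin assay in DiscoveRx D2 cells. Compounds were added with an EC20 of dopamine (50 nM final) for 90 min at 37 deg C. Luminescence was read 1 h after detection reagent, with 57 uM dopamine as the EC100 control.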
CtBP-E1A inh – blocks the CtBP interaction with E1A. AlphaScreen GST-E1A/His-CtBP binding, 1536-well; hits give low values; control for the full effect not named in the record. activity change, % (test concentration not listed). actives 0.49% (n = 340,000). AID 651724; in the data active means activity change below about -65%; inconclusive means about -30% to -65%; inactive means above about -30%; further: on the % scale 0 is the no-effect control and ±100 the full control effect; compound concentration not given in the record
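In 5 uL wells, 23 nL compound meets equimolar GST-E1A and His-CtBP (5X stock 125 nM each) for 2 h, 37 °C. Beads (5X, 50 ug/mL) then 1 h, 37 °C, dark.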
Sfp PPTase inh – inhibitors of Bacillus subtilis Sfp phosphopantetheinyl transferase; Q9F4F7; Biochemical Sfp PPTase activity, qHTS; Potency, µM, inactives show max response, negative = inhibition, hits mostly inhibitors; actives 3.5% (n = 310,000); active means well fitted inhibition curve with a large enough effect; inconclusive means small, poorly fitted or top-dose-only effect, or another doubt; inactive means no such curve, though single readings can be large or run the other way;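 further: the enzyme is Sfp with the accession as filed and its product quenches rhodamine fluorescence; potency means the concentration at half of the fitted maximal effect; 0% = enzyme reaction without inhibitor and -100% = no enzyme wells; top concentration of the series not given in the record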
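Compounds were incubated with enzyme (final 15 nM) for 15 min at room temperature before substrate addition started the reaction. Fluorescence at 525 nm excitation, 598 nm emission was recorded immediately and after 30 minutes.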
D2 agonist – human D2 receptor agonism in beta-arrestin assay; P14416; DiscoveRx PathHunter D2 beta-arrestin, luminescence, 90 min; 100% = 57 uM dopamine signal; activation, % (no concentration beside the values); actives 0.084% (n = 360,000); AID 624465; in the data active = activation above about 40%; inconclusive = about 15% to 40%; inactive = below about 15%; further: compound concentration not given in the record; the text of the record calls up to 30% inactive
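DiscoveRx PathHunter D2 beta-arrestin cells (2,100/well) attached overnight, then compound-stimulated 90 min at 37 C in HBSS/10 mM HEPES/0.1% Tween-20 buffer; beta-galactosidase complementation read by luminescence after 1 h at ambient temperature. Dopamine 57 uM final (EC100) as control.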
TRPV1 potentiator – potentiators of human vanilloid receptor 1 (TRPV1). actives 0.02% (n = 320,000). TRPV1-expressing cells, Fluo-8 calcium influx, capsaicin EC20 potentiation; host cell line not named in the record; control for the full effect not named in the record. Q8NER1. potentiation, % at 8.33 µM; active means potentiation above 80%; inconclusive means 30% to 80%; inactive means below 30%; further: 0% is about no effect
Target sequence (Q8NER1 whole entry, looked up): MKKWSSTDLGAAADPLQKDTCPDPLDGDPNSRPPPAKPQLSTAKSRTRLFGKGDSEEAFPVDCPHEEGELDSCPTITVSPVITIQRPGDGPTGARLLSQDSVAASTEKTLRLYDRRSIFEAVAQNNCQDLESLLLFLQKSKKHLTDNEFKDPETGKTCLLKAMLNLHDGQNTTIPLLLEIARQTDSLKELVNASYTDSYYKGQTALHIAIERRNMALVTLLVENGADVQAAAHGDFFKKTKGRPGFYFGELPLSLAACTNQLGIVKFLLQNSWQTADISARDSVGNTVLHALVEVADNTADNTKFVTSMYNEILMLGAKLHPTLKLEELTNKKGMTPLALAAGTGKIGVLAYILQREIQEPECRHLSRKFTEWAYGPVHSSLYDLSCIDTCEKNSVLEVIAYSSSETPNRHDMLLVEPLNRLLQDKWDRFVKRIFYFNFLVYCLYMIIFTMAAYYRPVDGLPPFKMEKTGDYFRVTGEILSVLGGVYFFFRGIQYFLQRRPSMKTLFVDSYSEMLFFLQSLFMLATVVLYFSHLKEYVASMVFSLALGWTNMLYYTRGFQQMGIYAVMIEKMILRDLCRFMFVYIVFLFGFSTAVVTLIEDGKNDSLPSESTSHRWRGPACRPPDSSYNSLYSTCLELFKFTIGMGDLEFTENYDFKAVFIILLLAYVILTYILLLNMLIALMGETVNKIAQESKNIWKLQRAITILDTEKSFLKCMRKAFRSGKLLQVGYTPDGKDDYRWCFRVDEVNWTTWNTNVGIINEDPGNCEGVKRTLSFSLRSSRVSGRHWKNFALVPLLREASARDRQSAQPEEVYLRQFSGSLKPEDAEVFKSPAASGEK
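TRPV1-expressing cells were cultured overnight at 35.5C and loaded with Fluo-8 calcium dye for 40 to 90 min at room temperature. After a 10 s baseline, compound was added and calcium influx was read kinetically for 3 min (ex 480/em 520 nm).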
PINK1 expr mod – changes PINK1 expression. actives 0.2% (n = 410,000). PINK1 immunofluorescence, high-content cytometry, 24 h. AID 624263. Potency, µM (doses to about 76.6 µM), inactives show top-dose activation (PINK1 increase), hits mostly activators; active = well fitted activation curve with a large enough effect; inconclusive = small, poorly fitted or top-dose-only effect; inactive = flat fitted curve, though single readings scatter; cell line not stated here;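 further: potency means the concentration at half of the fitted maximal effect; % of control where 0% means no effect; nearly all actives have a fitted effect of over 65% in size; a mitochondrial uncoupler was the plate control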
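Measures PINK1 amount and localization on or inside mitochondria by immunofluorescence. Stable cells get compounds at 5 concentrations for 24 hours before fixation and staining; CCCP controls included.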
Numbers without * were called inactive; ? = inconclusive; · = no result given; [ ] = dose if it differs, or a comment.

Preview, eleven compounds:
SMILES	Six1-Eya2 inh	D2 potentiator	CtBP-E1A inh	Sfp PPTase inh	D2 agonist	TRPV1 potentiator	PINK1 expr mod
CCN(CC)CCNC(=O)c1ccc(NC(=O)c2cccc(S(=O)(=O)N(C)C3CCCCC3)c2)cc1	-1	-5	-4	·	-2.2	·	-0.9%
NNC(=O)c1ccc(COCC(F)(F)F)cc1	0	-5	0	-3%	-1.3	·	-1.0%
Cc1c(-c2ccc(/C=N/NC(=O)C(=O)Nc3ccccc3F)o2)cccc1[N+](=O)[O-]	2	-15	·	2%	-3.7	1	4.2%
C=CCNC(=O)CN(CCc1ccccc1)S(=O)(=O)c1ccccc1	1	3	2	12%	3.4	-3	1.0%
O=C(c1ccco1)N(Cc1ccccc1)Cc1ccccn1	-2	-5	6	-18%	1.2	-4	-0.2%
Cn1c(SCc2c(F)cccc2Cl)nc2ccccc2c1=O	7	-2	1	·	6.2	5	11%
CC(=O)NCC1CCCN(Cc2cn(-c3ccccc3)nc2-c2ccc3c(c2)OCO3)C1 (stereo unspecified)	-5	-13	3	7%	1.1	-19	0.9%
Cc1c(-c2csc(N)n2)cnn1C	0	12	4	-1%	?	2	2.6%
O=C1CCCc2[nH]c3cccc(/C(=C/c4ccccc4)c4ccccc4)c3c21	-3	2	·	11%	1.6	8	0.3%
O=C(CSc1nnc(COc2ccc(Cl)cc2)o1)N1CCOCC1	4	-6	3	4%	-0.4	-18	1.3%
O=C(NO)c1ccc(OC(F)F)cc1	16	-4	0	14%	-1.3	8	7.0%

The list itself, from the first entry:
SMILES	Six1-Eya2 inh	D2 potentiator	CtBP-E1A inh	Sfp PPTase inh	D2 agonist	TRPV1 potentiator	PINK1 expr mod
CCN(CC)CCNC(=O)c1ccc(NC(=O)c2cccc(S(=O)(=O)N(C)C3CCCCC3)c2)cc1	-1	-5	-4	·	-2.2	·	-0.9%
NNC(=O)c1ccc(COCC(F)(F)F)cc1	0	-5	0	-3%	-1.3	·	-1.0%
Cc1c(-c2ccc(/C=N/NC(=O)C(=O)Nc3ccccc3F)o2)cccc1[N+](=O)[O-]	2	-15	·	2%	-3.7	1	4.2%
C=CCNC(=O)CN(CCc1ccccc1)S(=O)(=O)c1ccccc1	1	3	2	12%	3.4	-3	1.0%
O=C(c1ccco1)N(Cc1ccccc1)Cc1ccccn1	-2	-5	6	-18%	1.2	-4	-0.2%
Cn1c(SCc2c(F)cccc2Cl)nc2ccccc2c1=O	7	-2	1	·	6.2	5	11%
CC(=O)NCC1CCCN(Cc2cn(-c3ccccc3)nc2-c2ccc3c(c2)OCO3)C1 (stereo unspecified)	-5	-13	3	7%	1.1	-19	0.9%
Cc1c(-c2csc(N)n2)cnn1C	0	12	4	-1%	?	2	2.6%
O=C1CCCc2[nH]c3cccc(/C(=C/c4ccccc4)c4ccccc4)c3c21	-3	2	·	11%	1.6	8	0.3%
O=C(CSc1nnc(COc2ccc(Cl)cc2)o1)N1CCOCC1	4	-6	3	4%	-0.4	-18	1.3%
O=C(NO)c1ccc(OC(F)F)cc1	16	-4	0	14%	-1.3	8	7.0%
COc1cc(OC)c(C2N(c3cc(C)on3)C(=O)C3CCCN32)cc1OC (stereo unspecified)	4	-12	0	19%	-3.4	-6	0.5%
C=CC[C@@H](CC(=O)N[C@H](CO)Cc1ccccc1)C(=O)NC[C@H](OC(=O)[C@@H](CC=C)Cc1ccc(F)cc1)c1ccccc1	7	11	·	·	3.7	·	0.7%
CCCc1ccc(C(=O)CN2C(=O)C(=O)N(C3CCCC3)C2=O)cc1	3	-1	-2	·	0.0	6	1.0%
Cc1ccc2occ(/C=N/NC(=O)c3ccncc3)c(=O)c2c1	-2	-4	3	12%	-0.2	-1	0.8%
CCOc1ccc(N2C(=O)CC(NCCc3c[nH]c4ccccc34)C2=O)cc1 (stereo unspecified)	4	-6	·	-13%	3.4	-10	1.1%
CC(=O)Nc1c(-c2ccccc2Cl)c(=O)c2ccccc2n1C	0	-1	3	6%	0.4	4	0.1%
CCCCNC(=O)c1cc2c(-c3ccc(Cl)cc3)nn(C)c2s1	-10	4	-3	15%	-1.5	-18	4.8%
CCC(c1nnnn1-c1ccc2c(c1)OCCO2)N1CCN(c2cccc(C)c2C)CC1 (stereo unspecified)	-8	·	-13	·	·	·	-0.5%
Cc1ccc(CNC(=O)N2CCN(C)CC2)cc1	4	-17	11	-4%	-1.4	11	2.8%
NC(=O)c1ccsc1NC(=O)COC(=O)Cc1ccccc1Cl	1	-1	-4	·	13	-22	-0.2%
Cc1ccc(NC(=O)c2ccc(-n3cncn3)c([N+](=O)[O-])c2)cc1	-3	-7	3	3%	1.9	-17	·
COc1ccc(NC(=O)CSc2nc(N)cc(=O)[nH]2)cc1S(=O)(=O)N1CCCCC1	-2	-8	-14	·	2.2	-2	-1.5%
S=c1[nH]nc(-c2cc(-c3ccccc3)n[nH]2)n1/N=C/C(Br)=C/c1ccccc1	-26	-19	-10	?	-9.1	·	-2.3%
Cc1ccc(C(=O)C(C)OC(=O)CNC(=O)c2ccc(Br)o2)cc1 (stereo unspecified)	2	5	1	·	-1.3	-17	0.5%
Later entries:
SMILES	Six1-Eya2 inh	D2 potentiator	CtBP-E1A inh	Sfp PPTase inh	D2 agonist	TRPV1 potentiator	PINK1 expr mod
Cc1ccc(S(=O)(=O)N/N=C/c2cccs2)cc1	5	-3	5	13%	-3.4	6	-2.3%
Cc1onc(-c2ccccc2)c1C(=O)N1CCN(Cc2ccccc2)CC1	0	8	-1	4%	2.0	10	0.3%
CCCCC(=O)NNC(=O)CC(=O)Nc1ccccc1C(=O)O	-8	-8	-1	?	-5.5	9	0.7%
Cc1ccc(OCC(=O)OC2CCS(=O)(=O)C2)cc1 (stereo unspecified)	7	-2	-6	23%	2.1	1	0.7%
CCN(CC)S(=O)(=O)c1ccc2c(c1)c(C(=O)O)cn2C	?	-29	14	15%	-5.0	-2	-0.6%
O=C(CCl)c1ccc2c(c1)CCN2C(=O)C1CCCCC1	0	-24	-6	4%	-2.0	-22	0.0%
COc1ccc(-c2cc(C(F)(F)F)c3c(N)c(C(=O)NCCSC)sc3n2)cc1	14	2	12	-6%	-2.8	0	30%
O=C(Nc1ccccc1)C1=C[C@@H](c2ccc(C(F)(F)F)cc2)C[C@@H](OCCCCO)O1	15	-9	0	·	1.5	·	?
O=C(Nc1ccc(F)cc1)Nc1ccc(NC(=O)c2ccccc2O)cc1	-6	-7	-2	9%	0.2	-4	17%
C=CCCCCCCCCc1nc(SCC(=O)O)n[nH]1	12	-1	5	21%	-0.2	5	-1.0%
COc1cccc(C2C(C(=O)c3sc(C)nc3C)=C(O)C(=O)N2CCN2CCOCC2)c1 (stereo unspecified)	-5	-8	-14	-17%	-1.2	3	0.3%
Cn1c(CS/C(N)=N/N=C/c2ccccc2)c(Br)c(=O)n1-c1ccccc1	-6	-11	1	45µM*	-5.1	-8	1.8%
CCCCOc1ccccc1C1CC(=O)NC2=C1C(=O)CCC2 (stereo unspecified)	-8	-5	-2	24%	-2.0	0	3.2%
CCOC1(C(F)(F)F)NC(=O)N(Cc2ccc(OC)cc2)C1=O (stereo unspecified)	3	-5	8	-8%	-1.9	1	-2.4%
CN1CCN(NC(=O)c2cn(-c3ccccc3)nc2-c2cccc(Br)c2)CC1	-4	-4	-2	-20%	2.5	9	-1.4%
COc1ccc2cc3cc(C(=O)N4CCN(Cc5ccc6c(c5)OCO6)CC4)oc3nc2c1	?	-10	?	-4%	-0.7	-10	-0.5%
Cc1ccc2c(Cl)c(C)c(N3CCOCC3)nc2n1	-5	-1	0	·	-0.8	·	-1.7%
Cc1ccc(N(Cc2ccccc2)C(=O)c2cccc(S(=O)(=O)N3CC(C)OC(C)C3)c2)cc1 (stereo unspecified)	-16	-9	0	·	-19	4	-1.9%
CC(=O)N[C@@H](Cc1c[nH]c2ccccc12)C(=O)NC1CC1	2	-3	-1	3%	-5.1	-5	1.3%
COc1ccc(C(O)Cc2nc3ccccc3n2C)cc1OC (stereo unspecified)	12	-2	0	-9%	-0.6	-7	-0.1%
CC(C)CC1C(=O)N(Cc2cn(Cc3ccco3)nn2)CCS(=O)(=O)N1Cc1ccc(-c2ccc(F)nc2)cc1 (stereo unspecified)	-8	·	-1	·	6.0	·	4.9%
COC(=O)c1cnc(NNC(=O)c2ccc([N+](=O)[O-])cc2)nc1C(F)(F)F	12	-20	4	11%	-5.8	3	-2.2%
CC1(C)Cc2c(c(N3CCOCC3)nc3sc4c(NCCN)ncnc4c23)CO1	-5	6	-11	·	0.8	·	-1.1%
CCOc1ccc(NC(=O)CCN2C(=O)CSc3ccccc32)cc1	3	-5	4	·	3.1	-1	0.1%
Cc1cc(N2CCN(S(=O)(=O)c3ccc4ccccc4c3)CC2)n2ncnc2n1	-12	-1	-2	7%	-0.1	1	0.0%
Going on with the list.
SMILES	Six1-Eya2 inh	D2 potentiator	CtBP-E1A inh	Sfp PPTase inh	D2 agonist	TRPV1 potentiator	PINK1 expr mod
Cc1nc2nc(-c3ccccc3)cc(=O)n2[nH]1	1	-4	1	7%	-1.7	-6	-3.2%
N=c1c2c3c(sc2ncn1Cc1ccccc1)CCCC3	-1	-15	-2	-14%	-1.7	-3	-0.6%
CCOC(=O)c1oc2nc(C(C)C)c3c(c2c1N)CCC3	-6	-40	-10	3%	-3.6	-23	-0.9%
COc1ccc(S(=O)(=O)N2CCC(C(=O)N[C@@H](C)C(=O)N3CCCCCC3)CC2)cc1	-1	-11	-1	9%	-3.5	?	0.5%
Cc1ccccc1Nc1cc(C(=O)NCc2ccco2)c2ccccc2n1	-20	-40	9	?	-4.0	24	7.1%
Cc1ccc(C)c(-n2c(SCC(=O)NC(C(=O)O)C(C)C)nnc2-c2cccc(Cl)c2)c1 (stereo unspecified)	-7	-3	2	15%	2.2	4	0.1%
O=C(Nc1cccc(F)c1)c1cccnc1NCCc1ccccc1	34	-8	39	23%	4.4	2	4.5%
C/C(=C\C(=O)Nc1nccs1)c1ccccc1	0	2	-3	7%	-2.6	-26	5.7%[38.3 µM]
C1=C(c2ccccc2)Nc2ccccc2N=C1c1ccccc1	11	-1	2	-12%	-3.3	1	4.7%
Cc1ccccc1CN(C)CC(=O)Nc1c(C)cccc1C(C)C	16	9	3	-4%	-2.5	-12	1.5%
